nsP2pro primary – inhibitors of chikungunya virus nsP2 protease; Q8JUX6; FRET peptide cleavage, nsP2pro, fluorescence 1 h; Potency, µM (highest dose often 24.9 µM), without a hit: at the top dose activity change, negative = inhibition, hits mostly inhibitors; hit rate 1.1% among 31,000; AID 1964107; active means well fitted inhibition curve with a large enough effect; inconclusive means small, poorly fitted or top-dose-only effect; inactive means no such curve, though single readings can be large or run the other way; further: nearly all actives have a fitted effect of over 60% in size; a reference inhibitor and vehicle were the controls
Target sequence (Q8JUX6 whole entry, looked up): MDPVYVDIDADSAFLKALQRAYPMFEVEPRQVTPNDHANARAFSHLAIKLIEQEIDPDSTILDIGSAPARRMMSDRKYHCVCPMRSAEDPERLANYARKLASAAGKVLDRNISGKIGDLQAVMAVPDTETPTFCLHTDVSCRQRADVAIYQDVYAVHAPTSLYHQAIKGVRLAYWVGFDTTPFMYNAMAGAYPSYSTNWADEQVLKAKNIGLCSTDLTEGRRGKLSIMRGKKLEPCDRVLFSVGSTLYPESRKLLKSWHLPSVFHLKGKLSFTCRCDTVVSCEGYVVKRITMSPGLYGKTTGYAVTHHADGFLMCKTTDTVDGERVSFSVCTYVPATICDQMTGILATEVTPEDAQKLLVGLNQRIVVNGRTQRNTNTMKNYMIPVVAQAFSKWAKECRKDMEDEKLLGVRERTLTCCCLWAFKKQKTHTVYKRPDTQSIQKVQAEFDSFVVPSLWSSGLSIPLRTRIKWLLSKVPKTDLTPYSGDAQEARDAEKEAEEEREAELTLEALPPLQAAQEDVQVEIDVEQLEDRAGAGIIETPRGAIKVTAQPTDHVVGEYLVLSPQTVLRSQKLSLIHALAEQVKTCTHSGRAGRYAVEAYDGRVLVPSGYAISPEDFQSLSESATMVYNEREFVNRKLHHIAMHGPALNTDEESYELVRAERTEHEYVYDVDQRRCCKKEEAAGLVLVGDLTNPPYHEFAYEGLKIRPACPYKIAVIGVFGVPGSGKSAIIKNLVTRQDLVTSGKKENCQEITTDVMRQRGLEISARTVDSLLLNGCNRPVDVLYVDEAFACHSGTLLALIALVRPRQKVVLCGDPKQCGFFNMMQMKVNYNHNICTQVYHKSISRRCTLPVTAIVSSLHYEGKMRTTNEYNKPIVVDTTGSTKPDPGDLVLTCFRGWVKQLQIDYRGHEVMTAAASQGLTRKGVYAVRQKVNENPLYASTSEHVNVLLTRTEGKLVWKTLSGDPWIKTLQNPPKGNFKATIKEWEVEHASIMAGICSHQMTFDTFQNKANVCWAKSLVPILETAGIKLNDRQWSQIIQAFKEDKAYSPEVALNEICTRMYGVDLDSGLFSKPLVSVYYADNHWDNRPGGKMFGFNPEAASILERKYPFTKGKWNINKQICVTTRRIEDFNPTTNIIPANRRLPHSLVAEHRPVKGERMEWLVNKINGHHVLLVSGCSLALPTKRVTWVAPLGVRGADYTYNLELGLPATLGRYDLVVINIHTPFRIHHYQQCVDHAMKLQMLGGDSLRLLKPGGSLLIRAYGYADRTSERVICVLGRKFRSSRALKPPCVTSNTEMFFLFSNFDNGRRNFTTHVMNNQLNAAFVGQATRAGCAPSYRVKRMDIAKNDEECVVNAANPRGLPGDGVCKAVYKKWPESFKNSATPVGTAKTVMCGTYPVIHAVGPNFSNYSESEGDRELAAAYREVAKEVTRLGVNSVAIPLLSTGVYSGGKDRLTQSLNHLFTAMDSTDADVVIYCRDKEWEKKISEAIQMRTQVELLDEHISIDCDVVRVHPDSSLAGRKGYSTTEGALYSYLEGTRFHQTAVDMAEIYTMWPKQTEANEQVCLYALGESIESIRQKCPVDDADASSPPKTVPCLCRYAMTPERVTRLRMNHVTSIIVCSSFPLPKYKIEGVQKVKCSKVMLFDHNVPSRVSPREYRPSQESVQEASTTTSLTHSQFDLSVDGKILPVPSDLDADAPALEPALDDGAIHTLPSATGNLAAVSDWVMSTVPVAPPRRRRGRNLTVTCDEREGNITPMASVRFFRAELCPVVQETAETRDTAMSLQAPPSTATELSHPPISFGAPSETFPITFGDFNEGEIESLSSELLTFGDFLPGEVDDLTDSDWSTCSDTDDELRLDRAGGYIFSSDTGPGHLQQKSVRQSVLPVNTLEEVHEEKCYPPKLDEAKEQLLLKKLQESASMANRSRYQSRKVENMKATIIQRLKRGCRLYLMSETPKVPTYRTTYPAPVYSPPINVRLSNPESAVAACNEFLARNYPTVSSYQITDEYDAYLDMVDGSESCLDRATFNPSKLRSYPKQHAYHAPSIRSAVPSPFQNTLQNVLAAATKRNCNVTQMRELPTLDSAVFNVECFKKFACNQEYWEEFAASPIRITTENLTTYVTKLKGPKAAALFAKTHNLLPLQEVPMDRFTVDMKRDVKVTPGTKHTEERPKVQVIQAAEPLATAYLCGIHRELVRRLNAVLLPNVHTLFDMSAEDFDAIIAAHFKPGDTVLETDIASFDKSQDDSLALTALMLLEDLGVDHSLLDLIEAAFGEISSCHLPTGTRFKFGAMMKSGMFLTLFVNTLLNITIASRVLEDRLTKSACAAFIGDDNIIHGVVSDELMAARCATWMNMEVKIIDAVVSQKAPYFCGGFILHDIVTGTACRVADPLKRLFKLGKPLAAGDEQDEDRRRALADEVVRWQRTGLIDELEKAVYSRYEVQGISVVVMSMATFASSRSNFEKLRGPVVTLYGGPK
* = called active by the depositor; i = inactive; u = inconclusive; & = joins results of further samples; [ ] = another dose, or the depositor's remark. On the % scale 0 is the no-effect control and ±100 the full control effect; potency means the concentration at half of the fitted maximal effect.

SMILES	nsP2pro primary
O=C1C(=Cc2cccnc2)C(=O)c2ccccc21	u
Cn1c(=O)[nH]c(=O)c2c1nc(N1CCOCC1)n2Cc1ccccc1	-9%
COc1ccc2nc(-c3cc(OC)c(OC)c(OC)c3)cc(C(=O)NCC(=O)Nc3ccc(C(C)=O)cc3)c2c1	-2%
Cc1cc2c(n1-c1ccc(C(=O)NCCc3ccc(Cl)cc3)cc1)CCCC2	-25%
Cc1cc(C)c(Cn2c3ccccc3c3cnn(CC(=O)NCc4ccccn4)c(=O)c32)c(C)c1	2%
COc1cccc(-c2nc(S(=O)(=O)c3ccc(C)cc3)c(NCc3ccccc3)o2)c1	-20%
Cc1nnnn1-c1cccc(C(=O)N2CCCC(O)(CN(C)C)CC2)c1 (stereo not drawn)	-5%
C[C@@H]1O[C@@H](O[C@H]2[C@H](O[C@H]3[C@H](O[C@H]4CC[C@@]5(CO)C(CC[C@]6(C)C5CC=C5C7CC(C)(C)C[C@@H](O)[C@]7(C)CC[C@]56C)C4(C)C)O[C@H](C(=O)O)[C@@H](O)[C@@H]3O)OC[C@@H](O)[C@@H]2O)[C@H](O)[C@H](O)[C@H]1O (stereo partly drawn)	0%[5.1 µM]
Cc1cccc(N2CCN(C(=O)c3c(C)oc4nc(C)nc(N5CCCC5)c34)CC2C)c1 (stereo not drawn)	-14%
COc1ccc(CNc2nc(-c3ccco3)nn2C(=O)c2ccccc2Cl)cc1	-22%
Cc1cn([C@H]2C[C@H](N[S+](=O)([O-])Cc3cccc([N+](=O)[O-])c3)[C@@H](CO)O2)c(=O)[nH]c1=O	-2%
Cc1ccc(C)c(-c2nnc(NC(=O)c3ccc4c(c3)OCCO4)o2)c1	-6%
S=C(NCCCN(Cc1ccc(Cl)c(Cl)c1)c1ccc(Br)cn1)NCCc1cnc[nH]1	i
O=C1CCc2cc(S(=O)(=O)NCc3ccccc3)ccc2N1	5%
Cc1ccc(C(NC(=O)Cc2cccs2)C(=O)Nc2ccc(C(C)C)cc2)cc1 (stereo not drawn)	-19%
CC(C)c1cc(C(=O)N2CC[C@@H](NC(=O)C3CC3)C2)n[nH]1	-6%
NC(=O)c1ccc(I)c([N+](=O)[O-])c1	u
C[C@@H]1O[C@@H](O[C@H]2C[C@@H](O)[C@]3(CO)[C@H]4[C@H](O)C[C@]5(C)[C@@H](C6=CC(=O)OC6)CC[C@]5(O)[C@@H]4CC[C@]3(O)C2)[C@H](O)[C@H](O)[C@H]1O	-28%[10 µM]
CCn1c2ccccc2c2nnc(SCCN3CCCCC3)nc21	-12%
Cc1ccc(NC(=O)CSc2nc3ncccc3[nH]2)cc1F	-3%
O=C1CCc2cc(S(=O)(=O)Nc3cccc(Oc4ccccc4)c3)ccc2N1	i
Cc1nnc(N2CCN(c3cccc(C(F)(F)F)c3)CC2)c2c1nnn2Cc1ccccc1	11%
CC1(C)C[C@H](NC2CCC2)[C@@]2(CCC(=O)NCc3cccnc3)CC[C@](C)(O)C[C@@H]12	3%[39.2 µM]
Cc1cc(C)nc(NC(=S)N2CCN(c3ccc([N+](=O)[O-])c4cccnc34)CC2)c1	4%
COc1ccc(OC)c(-c2nnc3n2N=C(c2c(OC)cccc2OC)CS3)c1	4%
CC(=O)N[C@H]1[C@H](O[C@H]2CC[C@@]3(C)C(CC[C@]4(C)C3CC=C3C5CC(C)(C)CC[C@]5(C(=O)O)[C@H](O)C[C@]34C)C2(C)C)O[C@H](CO[C@@H]2OC[C@H](O)[C@H](O)[C@H]2O[C@@H]2OC[C@@H](O)[C@H](O)[C@H]2O)[C@@H](O)[C@@H]1O (stereo partly drawn)	0%[5.1 µM]
CCN1CCN(CCCNC(=O)c2cnn(-c3ccc(OC)cc3)c2C2CCN(C(=O)OC(C)(C)C)CC2)CC1	-3%
O=S(=O)(c1ccc(Br)cc1)c1nnn2c1nc(NCc1cccs1)c1sccc12	-9%
COC1(C(=O)N[C@@H](C)c2ccc(-n3cc(F)cn3)nc2)CCC(c2nc(C)cc(Nc3cc(C)[nH]n3)n2)CC1 (stereo partly drawn)	-2%
Cc1noc(-c2ccc(N3CCN(Cc4nccn4C)CC3)nc2)n1	i
CN(C)CC(=O)Nc1ccc2n(c1=O)C[C@H]1C[C@@H]2CN(C(=O)c2cccnc2)C1	i
O=C(NCC1CC1)C1CN(Cc2ccccc2)C(=O)N1 (stereo not drawn)	5%[39.2 µM]
C/C=C(\C)C(=O)O[C@H]1[C@@H](O[C@]2(COC(=O)CC(C)C)O[C@H](COC(=O)C(C)CC)[C@@H](OC(C)=O)[C@@H]2O)O[C@H](COC(C)=O)[C@@H](O)[C@@H]1O (stereo partly drawn)	1%[10 µM]
COC(=O)C[C@H]1C(C)(C)[C@H](OC(=O)C(C)C)C2CC3=C4CC(=O)O[C@@H](c5ccoc5)[C@]4(C)CCC3[C@@]1(C)C2=O (stereo partly drawn)	1%[10 µM]
CC(=O)Nc1ccc(CC(=O)N2CCC3(CCc4nn(Cc5ccccc5)c(=O)n4CC3)CC2)cc1	-3%
CC(C(O)/C=C/C(C)(C)O)C1CCC2(C)C3C(=O)C=C4C(CCC(O)C4(C)C)C3(C)CCC12C (stereo not drawn)	u
Cc1ccc(NC(=O)CN2C(=O)N/C(=C\c3ccco3)C2=O)cc1	u
Cc1cc(O)c(C(=O)c2cnc3c(c2)COc2ccccc2-3)cc1Cl	-27%
COc1ccc2c(OCc3nnc4ccc(-c5ccccc5)nn34)ccnc2c1	-6%
COc1ccc(C2Nc3ccccc3C(=O)N2Cc2ccccc2Cl)cc1COc1ccc(NC(C)=O)cc1 (stereo not drawn)	3%
CN1CC2(C1)C(=O)N(C)C(=O)[C@@H]1C[C@@H](O)CN12	-4%[39.2 µM]
CCCSc1nnc2c(n1)OC(c1ccc(OCC(=O)O)cc1)Nc1ccccc1-2 (stereo not drawn)	-17%
CC(=O)c1cc([N+](=O)[O-])c(Sc2cccc(Cl)c2Cl)s1	9%&8%
CCc1ccc(OCC(=O)N2CCN(CCc3ccccn3)CC2)cc1	u
FC(F)(F)c1ccccc1-c1nc(NCc2ccc(Cl)c(Cl)c2)c2ccccc2n1	1%
CC1(C)CCCC2(C)C(CO)C(CO)=CCC12 (stereo not drawn)	11%
COc1ccc(CC(=O)N2CCc3nc(-c4cccnc4)[nH]c3C2)cc1	1%
CC(C)O[C@@H]1O[C@H](CO)[C@@H](O)[C@H](O)[C@H]1O	31%
O=C(O)c1ccc2nc(-c3cc4cc(F)ccc4oc3=O)[nH]c2c1	8%
Cc1c(P(=S)(c2ccccc2)c2ccccc2)[n+]2ccccc2n1CCCCCc1ccccc1	1%
CCN(Cc1nccn1C)C(=O)c1ccc(N2CCSCC2)nc1	i
CCCc1c(C(C)C)nc(C(C)C)c([C@@H](C)O)c1-c1ccc(F)cc1O	11%
C=C1/C(=C\C=C2/CCC[C@]3(C)[C@@H]([C@H](C)CCCC(C)(C)O)CC[C@@H]23)C[C@@H](O)C[C@@H]1O	-22%
c1ccc(-c2nc(-c3ccc(OC4CNC4)cc3)no2)cc1	i
Cc1cc(C)n2nc(CNS(=O)(=O)c3ccc(C)c(C)c3)nc2n1	-12%
O=C1CCC2=C1C1(CCCC1)N=C(Nc1nc3ccccc3o1)N2	1%
COc1ccc(OC)c(NC(=O)C(OC(=O)CNC(=O)c2ccccc2)c2ccccc2)c1 (stereo not drawn)	-1%
Cc1ccc(C)c(NS(=O)(=O)c2ccc3c(c2)n(C)c(=O)n3C)c1	-19%
CCN1C(=O)c2ccccc2S(=O)c2ccc(C(=O)NCc3ccc(OC)cc3)cc21 (stereo not drawn)	-3%
CCOC(=O)c1c(-c2ccc(Br)cc2)csc1NC(=O)c1ccc(F)cc1	-27%

The last 4 compounds of the part before open the next one:
SMILES	nsP2pro primary
COc1ccc(OC)c(NC(=O)C(OC(=O)CNC(=O)c2ccccc2)c2ccccc2)c1 (stereo not drawn)	-1%
Cc1ccc(C)c(NS(=O)(=O)c2ccc3c(c2)n(C)c(=O)n3C)c1	-19%
CCN1C(=O)c2ccccc2S(=O)c2ccc(C(=O)NCc3ccc(OC)cc3)cc21 (stereo not drawn)	-3%
CCOC(=O)c1c(-c2ccc(Br)cc2)csc1NC(=O)c1ccc(F)cc1	-27%
Nc1ncnc2n[nH]c(Nc3ccc(F)cc3)c12	19%
COc1ccc(N2CCN(C(=O)c3cc4ccc5cccnc5c4[nH]3)CC2)cc1	-9%
CN[C@H](CNC(=O)N1CCC[C@@H]([C@@H](OCCNC(=O)OC)c2cccc(Cl)c2)C1)C[C@H]1CCCOC1	-5%
CCN(CC)CCNC(=O)C1CCN(S(=O)(=O)c2c(C)noc2/C=C/c2ccccc2F)CC1	70%[activator]
O=c1[nH]c(=O)n([C@H]2CCCO2)cc1F	-5%&-3%
CCn1nc(C)c(-c2cc(C(=O)NCCc3noc(COC)n3)no2)c1C	-8%
O=[N+]([O-])c1ccccc1	3%
CCOC(=O)c1cc2c(=O)n3ccccc3nc2n(CC2CCCO2)c1=NC(=O)c1ccc(F)cc1 (stereo not drawn)	-28%
CCOc1ccc(NC(=O)c2c(NC(=O)Cc3ccccc3)sc3c2CCCCC3)cc1	8.9µM*
C[C@@H](O)[C@H]1C(=O)N2C(C(=O)O)=C(SCCN=CN)C[C@H]12	-20%
O=[S+]([O-])(Nc1ccccc1)c1ccc(NCc2cccc(C(F)(F)F)c2F)cc1	i
O=C(c1ccccn1)N1C[C@@H]2C[C@H](C1)c1ccc(NS(=O)(=O)Cc3ccccc3)c(=O)n1C2	u
CCOc1ccc2nc3cc(N)ccc3c(N)c2c1	0%
CCOc1ccc(CCNC(=O)c2ccc3[nH]ccc3c2)cc1OCC	-6%
N#Cc1ccc(NS(=O)(=O)c2ccc3c(c2)CCC(=O)N3)cc1	-6%
O=C(O)c1ccc(S(=O)(=O)N[C@@H](Cc2ccc(O)cc2)C(=O)O)cc1	i
Clc1ccccc1-c1ccc2ncnc(NCc3cccs3)c2c1	i
Cc1ccc(OCCn2c3c(c4ccccc42)CCN(C(=O)C2CCCCC2)C3)cc1	1%
O=C(O)CCNC(=O)c1ccc(N=Nc2ccc(O)c(C(=O)O)c2)cc1	14%
Cc1ccc(Cn2c(C(=O)NCc3ccccc3Cl)cc3sccc32)cc1	-29%
Cc1ccc(NC(=O)/C(C#N)=C/c2cc(C)n(-c3ccc(Br)cc3)c2C)cc1C	-17%
CC1(C)CC[C@]2(CO[C@@H]3O[C@H](CO)[C@@H](O)[C@H](O)[C@H]3O)[C@@H](O)C[C@]3(C)C(=CCC4[C@@]5(C)CC[C@H](O[C@@H]6O[C@H](CO[C@@H]7O[C@H](CO[C@@H]8OC[C@@H](O)[C@H](O)[C@H]8O)[C@@H](O)[C@H](O)[C@H]7O)[C@@H](O)[C@H](O)[C@H]6O)C(C)(C)C5CC[C@]43C)[C@@H]2C1 (stereo partly drawn)	28%[5.1 µM]
CNC(=O)c1ccc2c(c1)N=C(C)c1cc(C)ccc1S2	-4%
COc1nc2ccccc2cc1CN1CCN2C(=O)CN(C)C(=O)C2C1 (stereo not drawn)	2%
O=C(OC1CN2CCC1CC2)N1CCc2ccccc2C1c1ccccc1 (stereo not drawn)	17%
CCn1cc(C(=O)N2CCc3cc(S(=O)(=O)NCC4CCCO4)ccc3C2)cn1 (stereo not drawn)	4%
O=C(Cc1nnc(CNC(=O)c2ccccc2)s1)Nc1ccc(C(F)(F)F)cc1Cl	1%
CCCN(Cc1ccco1)C(=O)C1CCC(=O)N(CC2CCCCC2)C1 (stereo not drawn)	-5%
c1ccc(-c2n[nH]c3c2oc2ccccc23)cc1	1%
CC(=O)N1CCC(C(=O)NC2CCc3n[nH]c(=O)n3CC2)CC1 (stereo not drawn)	i
COC(=O)c1c(Oc2ccc(OC)cc2)nnc(-c2ccccc2)c1-c1ccccc1	-6%
O=S(=O)(c1ccc2c(c1)OCCO2)C1CCC(S(=O)(=O)c2c(F)cccc2F)CC1 (stereo not drawn)	-8%&0%
O=C1CC2(CCN(CC3CCCCC3)CC2)Oc2ccccc2N1c1ccccc1	-9%
CN1C[C@@H](NC(=O)NC2CCCCC2)C[C@H]1c1nc(-c2cccnc2)no1	-10%[39.2 µM]
CCCn1c(-c2ccc(F)cc2)nc2c(NCCCN(CCO)CCO)nc(C)nc21	-10%
CC(C)=CCC/C(C)=C/C=C/C(C)=C/C=C/C(C)=C/C=C/C=C(C)/C=C/C=C(C)/C=C/C=C(\C)CCC=C(C)C	-29%&11%
Cc1cc(C)n(-c2cccc(CN(C)C(=O)c3cn(Cc4ccc(Cl)cc4)nn3)c2)n1	i

Reformatted in CSV form: part of the list above.
canonical_smiles,nsP2pro primary
CCCN(Cc1ccco1)C(=O)C1CCC(=O)N(CC2CCCCC2)C1 (stereo not drawn),-5%
c1ccc(-c2n[nH]c3c2oc2ccccc23)cc1,1%
CC(=O)N1CCC(C(=O)NC2CCc3n[nH]c(=O)n3CC2)CC1 (stereo not drawn),i
COC(=O)c1c(Oc2ccc(OC)cc2)nnc(-c2ccccc2)c1-c1ccccc1,-6%
O=S(=O)(c1ccc2c(c1)OCCO2)C1CCC(S(=O)(=O)c2c(F)cccc2F)CC1 (stereo not drawn),-8%&0%
O=C1CC2(CCN(CC3CCCCC3)CC2)Oc2ccccc2N1c1ccccc1,-9%
CN1C[C@@H](NC(=O)NC2CCCCC2)C[C@H]1c1nc(-c2cccnc2)no1,-10%[39.2 µM]

Assay outcomes deposited in PubChem BioAssay by National Center for Advancing Translational Sciences (NCATS).

Some of the compounds tested, so the mix of outcomes need not match the whole.
